# E coli growth = E. coli growth inhibition, primary screen, OD600; Escherichia coli growth, 23 h; active compounds read low; OD600 absorbance (test concentration not listed); hit rate 0.21% among 330,000;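 active = OD600 absorbance below the run mean of sample wells minus 3.6 SD, in any replicate, cut at about 0.56 in these data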;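 also: stock transfer was 300 nL into about 60 µL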
# FGF22 binding = binders of human FGF22 protein, primary screen, FGF22 synaptogenesis inhibitor project, biophysical, thermal shift, single point | recombinant FGF22 thermal shift, SYPRO orange fluorescence; percent of sucrose octasulfate shift, DMSO zero | calls only at 9.99 µM | hit rate 1.5% among 340,000;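 active = melting point raised past a set limit in the mean and every replicate; three in four hits are not shown here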
# rRNA inh HTS = reduced GFP signal of wild-type E. coli, primary screen, bacterial rRNA inhibitor project, GFP/RFP fluorescence, OD600, single point; E. coli WT GFP vs humanized-ribosome RFP mutants, 24 h; active compounds read low; DMSO median 0, no signal -100; GFP signal change (wild-type ribosome), % (test concentration not listed); hit rate 1.6% among 350,000; AID 720706, 2013;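 active = significant combined selectivity score with lowered wild-type GFP, culture density cut under 30%, mutant RFP and density less affected; inactive = any of these conditions unmet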; also: one replicate is shown; some compounds called inactive have numbers as strong as hits
# HNF4A DNA FP = change in binding of human HNF4A to DNA, primary screen, biochemical, fluorescence polarization, FITC-DNA. Hepatocyte nuclear factor 4-alpha (Homo sapiens), P41235. 1 h. activity change, % at 10 µM. hit rate 0.3% among 360,000; in the data active = activity change above about 30%, passing the limit was not always enough;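 also: controls were the assay level and a saturating level of protein; the project sought stronger binding though the title names inhibitors; some compounds called inactive have numbers as strong as hits; positive values seem to mean higher polarization but the record does not say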
# Target sequence (P41235 whole entry, looked up): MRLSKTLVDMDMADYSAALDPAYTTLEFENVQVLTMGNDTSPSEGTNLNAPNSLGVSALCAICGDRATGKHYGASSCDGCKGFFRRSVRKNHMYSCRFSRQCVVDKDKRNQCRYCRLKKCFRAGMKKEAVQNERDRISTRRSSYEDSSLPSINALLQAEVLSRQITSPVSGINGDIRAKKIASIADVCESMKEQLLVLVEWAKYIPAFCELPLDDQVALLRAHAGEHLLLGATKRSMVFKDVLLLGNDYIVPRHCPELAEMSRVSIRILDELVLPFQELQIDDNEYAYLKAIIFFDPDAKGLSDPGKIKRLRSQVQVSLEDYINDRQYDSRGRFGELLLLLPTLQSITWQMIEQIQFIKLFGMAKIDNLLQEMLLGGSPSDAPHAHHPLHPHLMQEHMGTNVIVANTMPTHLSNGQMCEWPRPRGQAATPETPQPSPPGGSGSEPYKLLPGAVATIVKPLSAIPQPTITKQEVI
# ALR H2O2 inh = inhibitors of human ALR sulfhydryl oxidase, primary screen, biochemical, H2O2 detection, HRP-luminol luminescence, single point; FAD-linked sulfhydryl oxidase ALR (Homo sapiens), P55789; purified ALR, DTT oxidation; inhibition, % (no concentration beside the values); hit rate 3.8% among 290,000; AID 485317, 2010;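 active = mean and each replicate at 75% or more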;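 also: stock transfer was 7.5 nL into about 7.5 µL; 0% = neutral wells and 100% = wells with inactivated enzyme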
# Target sequence (P55789 whole entry, looked up): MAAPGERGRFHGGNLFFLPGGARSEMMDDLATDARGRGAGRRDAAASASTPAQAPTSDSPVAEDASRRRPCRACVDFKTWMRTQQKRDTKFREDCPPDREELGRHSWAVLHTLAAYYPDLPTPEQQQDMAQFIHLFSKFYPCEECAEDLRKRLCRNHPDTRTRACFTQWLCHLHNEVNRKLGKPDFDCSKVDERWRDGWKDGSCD
# UCH37 DUB inh = inhibitors of human UCH37 deubiquitinase, primary screen, biochemical, Ub-AMC cleavage, fluorescence | Ubiquitin carboxyl-terminal hydrolase isozyme L5 (Homo sapiens), Q9Y5K5 | purified proteasome/UCH37 | inhibition, % (concentration not given with the values) | hit rate 0.33% among 330,000;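 active = mean of two replicates above 20%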;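 also: 0% = compound-free wells with enzyme and 100% = wells lacking proteasome; stock transfer was 100 nL into about 20 µL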
# Target sequence (Q9Y5K5 whole entry, looked up): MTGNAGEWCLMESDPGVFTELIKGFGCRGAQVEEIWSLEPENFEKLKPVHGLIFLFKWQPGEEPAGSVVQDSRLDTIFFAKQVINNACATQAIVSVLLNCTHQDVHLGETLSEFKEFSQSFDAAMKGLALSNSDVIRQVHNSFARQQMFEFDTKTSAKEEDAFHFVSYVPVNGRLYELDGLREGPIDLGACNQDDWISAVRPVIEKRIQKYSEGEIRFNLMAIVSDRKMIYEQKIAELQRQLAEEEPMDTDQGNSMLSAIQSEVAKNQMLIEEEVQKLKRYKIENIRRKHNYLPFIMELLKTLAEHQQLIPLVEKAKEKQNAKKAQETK
#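 Test system – human UCH37 enzyme supplied as purified proteasome complex · Incubation – 30 min preincubation with enzyme, 25 min cleavage at room temperature · Detection – AMC fluorescence from Ub-AMC cleavage, excitation 355 nm, emission 460 nm · Benchmarks – no-proteasome wells (full inhibition) and compound-free wells (no inhibition)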
# B2AR ag = beta2AR agonists driving receptor internalization, primary screen, cell-based, FAP fluorogen, flow cytometry. Beta-2 adrenergic receptor (Homo sapiens), P07550. Am2.2-beta2AR cells; reference of the scale not given here. response, % (no concentration beside the values). hit rate 0.43% among 340,000. AID 504454, 2011;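 active = response above a set limit, near 3 SD of response in nonfluorescent compounds, cut at about 42% in these data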;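 also: stock transfer was 100 nL into about 11 µL; a reference agonist was the positive control; negative values mostly stem from fluorescent compounds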
# rRNA inh HTS OD600 = recorded beside rRNA inh HTS, whose call it bears; OD600 change, %; measured here: OD600 growth;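 optical density of the mix in the first replicate; 0 = DMSO median and -100 = no signal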
# rRNA inh HTS RFP = further read-out of rRNA inh HTS, marked with its call; RFP signal change, %; measured here: RFP humanized mutant strains;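 first replicate; 0 = DMSO median and -100 = no signal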
# * marks the source's active call; other numbers are inactive results; i = inactive; . = no result given; + = active, no number. These rows are one share of the data; rates above refer to the full screens.
SMILES,E coli growth,FGF22 binding,rRNA inh HTS,rRNA inh HTS OD600,rRNA inh HTS RFP,HNF4A DNA FP,ALR H2O2 inh,UCH37 DUB inh,B2AR ag
S=c1[nH]nc(-c2ccc(Cl)cc2)n1CC1CCCO1 (configuration not stated),0.75,i,-8,-6,-12,-1.7,35,5.1,23
COc1ccc(OC)c(-c2nc(CN3CCCCC3c3cccnc3)c(C)o2)c1 (configuration not stated),0.67,i,-5,-12,-1.3,4.4,-2,-26,5
CCCCSCCCNC(=O)Nc1cccc(OC)c1,0.64,i,-5,3,0.4,-0.5,-4,-0.3,-9
NC1=NC2OC(CO)C(O)C2O1 (configuration not stated),.,i,12,6,-0.7,-1.0,.,.,.
C1=C(c2ccccc2)Nc2nnnn2C1c1cccs1 (configuration not stated),0.69,.,.,.,.,-2.0,-2,3.2,-2
CCOc1cc(/C=N/NC(=O)C(OC)c2ccccc2)ccc1O (configuration not stated),.,i,3,3,-1.0,0.2,100*,.,4
CC1SCC(NC(=O)c2ccc(Cl)cc2)CS1 (configuration not stated),0.68,i,.,.,.,3.2,2,1.2,-6
COc1ccc(/C=C2\SC(N3CCCCC3)=NC2=O)cc1,0.69,i,-4,4,1.6,3.1,-6,9.3,7
COc1cccc(CNc2nc3cc(-c4cccc(C(F)(F)F)c4)sc3c(=O)n2C)c1OC,.,i,8,0,3.0,-1.5,.,.,.
CN(CC(=O)Nc1ccc(F)c(F)c1F)C(=O)c1ccc2c(c1)NC(=O)CS2,0.68,i,0,0,-0.5,-2.1,12,-0.1,-11
C[C@@]12C(=O)N(CC3CCCO3)CC(=O)N1[C@@H]1c3ccccc3OC[C@@H]1[C@@H]2c1ccccc1 (some centres not stated),.,i,-4,4,-1.5,-4.1,.,.,6
CC1(C)NC(C)(C)C(O)(C(N)=O)C1=O (configuration not stated),0.75,.,.,.,.,5.3,-5,1.8,-6
Cc1nn(C)c(C)c1NC(=O)c1cnn2c(C(F)F)cc(-c3ccccc3)nc12,0.68,.,.,.,.,.,2,-2.5,.
NC(=O)c1ccccc1OCC(=O)N1CCCc2ccccc21,0.65,i,3,5,0.7,-0.5,-6,-0.5,5
C=CCC[C@@H](Cc1ccc(F)cc1)C(=O)OC[C@@H](Cc1c[nH]c2ccccc12)NC(=O)[C@H](CC=C)CC(=O)NCCO,.,i,-7,-10,24,1.7,3,2.0,-2
Cc1nn(Cc2ccccc2Cl)c(C)c1C(=O)NCc1ccco1,0.68,.,.,.,.,4.2,3,7.8,-1
Cc1ccccc1OCC(O)CN1CCN(CC(O)COc2ccccc2C)CC1 (configuration not stated),0.67,i,-12,-13,2.4,2.5,-10,2.5,-8
CC(C)N(C(=O)c1nn(C)c2c1CSc1ccccc1-2)C1CCCCC1,0.66,i,-7,9,13,-2.2,-8,5.6,-1
COc1ccc(CC(=O)Nc2cc(S(C)(=O)=O)ccc2Cl)cc1S(=O)(=O)N1CCOCC1,0.65,i,-9,13,-1.9,-0.3,.,3.5,-1
COC(=O)c1ccccc1NC(=O)CN1CCN(C23CC4CC(CC(C4)C2)C3)CC1,0.65,.,.,.,.,0.2,4,-0.5,2
CCOC(=O)C1=C(O)/C(=C/N(C)C)N=C1C,0.78,.,.,.,.,1.8,-5,-0.8,0
COC(=O)c1ccc(-n2cnc(Cl)n2)c(F)c1,0.68,.,.,.,.,-2.7,-20,3.5,-5
CC1CCN(CCc2nc3cc(NC(=O)NC4CCCCC4)ccc3n2C)CC1,0.73,.,.,.,.,0.1,11,4.1,-7
CC(C)Oc1ccc(S(=O)(=O)N(C(C)C)C(C)C)cn1,0.72,.,.,.,.,-0.7,.,2.5,-1
CCOc1ccc(CNC2CCCc3ccccc32)cc1 (configuration not stated),0.64,i,11,4,-1.7,-16,-12,4.1,9
CCSc1nnc(NC(=O)c2ccc(Br)s2)s1,0.69,.,.,.,.,-1.0,-2,-5.1,3
CC(=O)c1ccc(OCc2cn(CC(=O)c3ccc(O)cc3)nn2)c(C)c1,.,i,-31*,-16*,4.6*,-3.7,.,.,.
Clc1ccc(-c2ccnc(-n3cccc3)n2)s1,0.67,i,4,9,-1.1,-0.7,1,3.5,6
Cc1nc(-c2ccc(Cl)cc2)sc1C1(C)CC(c2ccncc2)=NO1 (configuration not stated),0.66,.,.,.,.,-5.1,9,3.3,3
CCc1ccc(NCc2cc3c(C)nn(-c4ccccc4)c3[nH]c2=O)cc1,0.7,i,3,-5,0.2,-1.3,-6,0.8,-16
CC(OC(=O)c1ccc(-n2cnnn2)cc1)C(=O)Nc1ccccc1F (configuration not stated),0.67,i,9,10,-0.7,3.0,0,0.1,-2
CCc1nc2ccc(C(=O)N3CCN(c4cccc(Cl)c4)CC3)cc2nc1CC,0.67,i,-29,-29,-7.3,2.5,-5,4.4,-2
CC(C)C1C(=O)N(Cc2cn(CCC3OCCO3)nn2)CCS(=O)(=O)N1Cc1ccc(-c2ccncc2)cc1 (configuration not stated),.,i,-3,-1,-3.5,-5.0,.,.,.
COc1cccc(/C=C2\SC(=O)N(CCC(=O)NNC(=O)c3ccccc3Cl)C2=O)c1,.,.,.,.,.,-3.8,-2,.,10
Cc1noc(C)c1S(=O)(=O)N(C)C[C@H]1Oc2ccc(NS(=O)(=O)c3ccc(F)cc3)cc2C(=O)N([C@H](C)CO)C[C@@H]1C,0.72,i,6,-11,2.8,-4.0,1,0.7,3
COc1ccc(CC(=O)n2nc(-c3ccccc3)nc2NCc2ccco2)cc1,0.73,.,.,.,.,0.1,11,2.4,6
COc1ccccc1N1CCN(C(=O)c2cccc(S(=O)(=O)NCc3cccnc3)c2)CC1,0.68,i,4,4,-0.2,-2.9,12,-0.5,0
Cc1ccc(C(C)C)cc1S(=O)(=O)Nc1cccnc1,0.66,i,2,5,-1.6,-1.2,0,0.7,2
CCOC(=O)c1ccc(NC(=O)C2(N3C(=O)c4ccccc4C3=O)CCCC2)cc1,0.67,i,-7,-10,2.3,-2.3,.,0.8,1
CCOC(=O)N1CCN(C(=O)c2ccc(NC(C)=O)cc2)CC1,0.62,.,.,.,.,0.1,-2,1.1,-8
C=CCc1cc(C)ccc1OCCOCCC(C(=O)OCC)C(=O)OCC,0.69,i,10,-1,-1.3,1.0,3,4.6,-2
COc1cccc(NC(=O)CCP(C)(=O)O)c1,0.74,.,.,.,.,-0.4,-5,0.6,4
CC(C)COc1ccc(C(=O)NNC(=O)CCC(=O)c2cccs2)cc1,0.66,i,5,3,-1.6,2.9,-17,-3.9,11
CC1C(=O)Nc2ccccc2N1C(=O)C1CC1 (configuration not stated),0.71,.,.,.,.,1.4,-7,-5.3,2
COc1ccccc1-n1nnnc1SCC(=O)N(CC(C)C)C1CCS(=O)(=O)C1 (configuration not stated),0.71,i,6,6,-2.3,-2.7,-8,0.6,9
NS(=O)(=O)c1ccc(NC(=S)Nc2ccc(OCc3ccccc3)cc2)cc1,0.7,i,10,10,-1.0,4.1,-4,-0.9,0
CCCCN(C)CCCNC(=O)c1cccc(N2CCCC2=O)c1,0.68,.,.,.,.,-0.7,-4,3.7,-6
Clc1ccc(Cl)c(-c2nn3c(COc4ccccc4)nnc3s2)c1,0.63,.,.,.,.,-0.1,0,6.2,-15
CCN(CC)S(=O)(=O)c1ccc2c(c1)NC(=O)C1CCCN21 (configuration not stated),0.69,i,5,5,-22,7.4,-6,-3.9,-8
CCOc1ccc(NC(=O)c2ccncc2)cc1,0.81,.,.,.,.,-3.7,-4,-0.2,0
c1ccc(C(c2ccccc2)c2noc(CN3CCN(C4CCCC4)CC3)n2)cc1,0.71,i,5,0,0.6,10,-9,0.5,3
CCc1nc2cccnc2n1-c1ccc(C(=O)O)cc1,0.69,i,7,5,6.9,-8.0,-11,-4.1,9
O=C(Nc1ncccc1O)c1ccc(Oc2ccccc2)cc1,0.61,i,0,-27,-3.3,-0.1,-3,1.2,-17
CCN(CC)CCn1c(N)nc2ccccc21,0.71,i,15,7,-8.5,1.8,-8,0.8,0
COc1ccc(N2CCCC2)c(NC(=O)c2ccc([N+](=O)[O-])o2)c1,0.64,i,4,6,-1.0,-1.5,.,2.7,2
CCCC(=O)Nc1ccc2c(c1)nc1n2CCSC1,0.68,.,.,.,.,-4.4,.,2.4,-3
FC(F)Oc1ccc(NC(=S)NCc2ccccc2)cc1,0.62,i,-33,-40,-12,-0.3,3,2.5,0
CC1(OC(=O)C2CCCC2)C(=O)C=C2C=C(c3ccsc3)N(CCc3ccccn3)C=C2C1=O (configuration not stated),0.68,i,17,22,15,-0.1,-65,4.9,-3
CCOc1ccccc1N(CC(=O)Nc1ccccc1)S(=O)(=O)c1ccccc1,0.69,i,-24,-14,0.2,5.0,-4,1.3,-4
Cc1ccc(-c2cc(C(=O)Nc3nn[nH]n3)c3ccccc3n2)cc1,0.74,.,.,.,.,3.9,4,-47,-6

# Sorted by number of heavy atoms (lowest first): some entries from above.
SMILES,E coli growth,FGF22 binding,rRNA inh HTS,rRNA inh HTS OD600,rRNA inh HTS RFP,HNF4A DNA FP,ALR H2O2 inh,UCH37 DUB inh,B2AR ag
C=CCc1cc(C)ccc1OCCOCCC(C(=O)OCC)C(=O)OCC,0.69,i,10,-1,-1.3,1.0,3,4.6,-2
COc1ccc(CC(=O)n2nc(-c3ccccc3)nc2NCc2ccco2)cc1,0.73,.,.,.,.,0.1,11,2.4,6
Cc1ccccc1OCC(O)CN1CCN(CC(O)COc2ccccc2C)CC1 (configuration not stated),0.67,i,-12,-13,2.4,2.5,-10,2.5,-8
COc1cccc(/C=C2\SC(=O)N(CCC(=O)NNC(=O)c3ccccc3Cl)C2=O)c1,.,.,.,.,.,-3.8,-2,.,10

# The results go on.
SMILES,E coli growth,FGF22 binding,rRNA inh HTS,rRNA inh HTS OD600,rRNA inh HTS RFP,HNF4A DNA FP,ALR H2O2 inh,UCH37 DUB inh,B2AR ag
O=C(c1ccco1)N1CCN(C(=O)N2CCCC2)CC1,0.69,i,6,0,-6.3,-2.7,.,-1.2,-7
Fc1ccc(-c2nc3ccc(Br)cn3c2Cc2ccccc2)cc1,.,i,-9,-41,-3.3,-2.8,.,.,.
CCOC(=O)c1ccc(N2C(=O)c3n[nH]c(C)c3C2c2ccccc2)cc1 (configuration not stated),0.7,.,.,.,.,0.2,-5,1.6,14
C/C(=N\NC(=O)c1ccc(NS(=O)(=O)c2cccs2)cc1)c1cccs1,.,+,2,-5,0.9,-7.1,22,.,7
CS(=O)(=O)c1cc(N2CCOCC2)ccc1CNC[C@H]1O[C@@H](n2cnc3c(=O)[nH]c(N)nc32)[C@H](O)[C@@H]1O,.,i,3,4,0.0,-2.2,.,.,.
Cc1cc2sc(NC(=O)c3ccco3)nc2cc1Cl,0.72,i,-1,6,-4.9,-1.3,-7,-4.9,1
CCOc1ccc(CCNC(=O)COC(=O)c2ccc(C)c([N+](=O)[O-])c2)cc1OCC,0.74,i,5,4,-3.0,1.0,-24,-1.6,-6
CCCCc1cc(=O)oc2c(CN(CC)CC)c(O)c(Cl)cc12,0.72,.,.,.,.,1.8,12,i,-1
CCNC(=S)Nc1ccc2c(c1)c(=O)n(C)n2-c1cc(C)cc(C)c1,.,i,-1,-5,-2.3,2.0,.,.,.
